Compound activity as filed in PubChem.
gsp ag = qHTS for Agonist of gsp, the Etiologic Mutation Responsible for Fibrous Dysplasia/McCune-Albright Syndrome: qHTS; gsp mutant cells, cAMP HTRF, 30 min; control for the full effect not named in the record; Potency, µM (series often up to 76.9 µM), inactives show at the highest dose activation (cAMP increase), most hits filed as activators; actives 0.13% (n = 340,000); active = well fitted activation curve with a large enough effect; inconclusive = small, poorly fitted or top-dose-only effect, or another doubt; inactive = no such curve, though single readings can be large or run the other way; cell line not stated here;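 also: phosphodiesterase inhibitor Ro 20-1724 added with compounds to block cAMP breakdown; potency is read from the fitted curve at half-maximal effect; nearly all actives have a fitted effect of over 60% in size; about a fifth of the inactives were tested at one dose only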
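Cells in DMEM/10% FBS with G418 were pretreated with compounds in DMSO plus […] (300 uM stock) for 30 min at 37C. cAMP was measured by HTRF (cAMP-d2 plus anti-cAMP antibody-K) after 30 min at room temperature.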
TRPML1 inh = qHTS for Inhibitors of the Human Mucolipin Transient Receptor Potential 1 (TRPML1) | Mucolipin-1 (Homo sapiens), Q9GZU1 | TRPML1-inducible cells, Ca2+ dye fluorescence, FDSS; hits give low values; inhibition of EC80 agonist-evoked calcium signal | activity change, negative = inhibition, % (concentration not given with the values) | actives 0.02% (n = 390,000); in the data active means activity change below about -50%; inconclusive means about -30% to -50%; inactive means above about -30%;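 also: stimulus is agonist 54-4 at its EC80 concentration; % is scaled to controls: 0 for no effect and ±100 for the full control effect; compound concentration not given in the record; the text of the record puts the active cut at -80%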
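Tet-induced TRPML1-DL cells loaded with Ca8 no-wash calcium dye were read kinetically on FDSS. Compound addition was followed by EC80 agonist 54-4 (4 uM final); inhibition was read over 110 s.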
gsp antag = qHTS for Antagonists of gsp, the Etiologic Mutation Responsible for Fibrous Dysplasia/McCune-Albright Syndrome: qHTS; gsp-mutant cells, cAMP HTRF, 30 min; control for the full effect not named in the record; Potency, µM (highest dose often 76.9 µM), for the others: at the highest dose activity change, negative = inhibition, actives largely listed as inhibitors; actives 0.4% (n = 340,000); AID 624288, 2012; active = falling curve of any shape with a large fitted effect; inconclusive = falling curve, mostly with a smaller effect; inactive = flat or rising curve; cell line not stated here;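 also: intracellular cAMP measured with PDE inhibitor Ro 20-1724 present during compound exposure; potency is read from the fitted curve at half-maximal effect; % is scaled to controls: 0 for no effect and ±100 for the full control effect; nearly all actives have a fitted effect of over 65% in size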
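Cells in G418 medium, seeded 16-24 h, 37C; buffer exchange to DPBS + 1 mM CaCl2, 0.5 mM MgCl2, 0.05% BSA; cpds in DMSO + […] (300 uM stock), 30 min 37C; HTRF cAMP detection.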
Sfp inh = qHTS Assay for Inhibitors of Bacillus subtilis Sfp phosphopantetheinyl transferase (PPTase); 4'-phosphopantetheinyl transferase ffp (Bacillus subtilis), Q9F4F7; Biochemical Sfp PPTase activity, qHTS; Potency, µM, without a hit: max response, negative = inhibition, actives largely listed as inhibitors; actives 3.5% (n = 310,000); active = well fitted inhibition curve with a large enough effect; inconclusive = small, poorly fitted or top-dose-only effect, or another doubt; inactive = no such curve, though single readings can be large or run the other way;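 also: the enzyme is Sfp with the accession as filed and its product quenches rhodamine fluorescence; potency is read from the fitted curve at half-maximal effect; 0% = enzyme reaction without inhibitor and -100% = no enzyme wells; top concentration of the series not given in the record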
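Step 1, compound plus 15 nM Sfp-PPTase, 15 min, room temperature. Step 2, add rhodamine-CoA (5 uM) and BHQ-2-YbbR (12.5 uM). Step 3, read 525/598 nm fluorescence at 0 and 30 min.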
Menin-MLL FL inh = qHTS Assay for Inhibitors Targeting the Menin-MLL Interaction in MLL Related Leukemias: Competition With Fluorescein Labeled MLL-derived Peptide; Fluorescence polarization, fluorescein-MLL peptide displacement from menin; FP activity change, % at 61.4 µM; 290,000 tested, under 10 active; inconclusive = falling polarisation curve, or a change in total fluorescence; inactive = total fluorescence flat and polarisation flat or rising; no compound was filed as active; the % refers to the polarisation; negative = inhibition;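 also: % of control where 0% means no effect; inhibitors lower the polarisation; unlabelled MLL peptide was the positive control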
TRPV1 PAM = HTS Assay for Compounds that Act as Potentiators of the Vanilloid Receptor 1; Transient receptor potential cation channel subfamily V member 1 (Homo sapiens), Q8NER1; potentiation, % at 8.33 µM; AID 540277, 2011; actives 0.02% (n = 320,000); TRPV1-expressing cells, Fluo-8 calcium influx, capsaicin EC20 potentiation; host cell line not named in the record; control for the full effect not named in the record; active means potentiation above 80%; inconclusive means 30% to 80%; inactive means below 30%; also: 0% is about no effect
Target sequence (Q8NER1 whole entry, looked up): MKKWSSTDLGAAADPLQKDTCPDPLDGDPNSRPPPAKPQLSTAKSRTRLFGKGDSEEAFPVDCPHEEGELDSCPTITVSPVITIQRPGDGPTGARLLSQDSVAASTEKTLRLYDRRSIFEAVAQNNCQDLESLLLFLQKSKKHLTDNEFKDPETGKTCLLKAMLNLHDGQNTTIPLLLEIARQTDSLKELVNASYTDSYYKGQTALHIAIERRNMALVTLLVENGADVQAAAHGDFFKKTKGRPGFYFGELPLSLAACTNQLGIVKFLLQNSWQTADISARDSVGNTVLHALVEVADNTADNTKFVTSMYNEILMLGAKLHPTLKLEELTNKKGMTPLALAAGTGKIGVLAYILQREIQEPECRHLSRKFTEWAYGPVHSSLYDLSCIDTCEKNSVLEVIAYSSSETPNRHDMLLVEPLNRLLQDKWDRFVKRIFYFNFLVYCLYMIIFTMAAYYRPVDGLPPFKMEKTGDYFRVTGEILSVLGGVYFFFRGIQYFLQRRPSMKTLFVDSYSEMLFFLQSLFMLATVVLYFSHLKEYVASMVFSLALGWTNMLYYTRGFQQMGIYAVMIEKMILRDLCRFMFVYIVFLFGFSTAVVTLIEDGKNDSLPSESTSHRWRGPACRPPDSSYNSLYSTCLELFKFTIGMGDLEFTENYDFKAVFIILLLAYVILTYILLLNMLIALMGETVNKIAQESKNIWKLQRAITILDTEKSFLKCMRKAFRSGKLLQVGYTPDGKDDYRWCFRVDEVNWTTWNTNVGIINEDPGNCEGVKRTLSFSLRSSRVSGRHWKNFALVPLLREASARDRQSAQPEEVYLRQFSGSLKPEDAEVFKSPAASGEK
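Cells expressing TRPV1 were dye-loaded with Fluo-8 and read kinetically: 10 s baseline, 3 min after compound (agonist portion), then 2 min after EC20 capsaicin (allosteric enhancer portion). Calcium-bound dye fluorescence at 480/520 nm.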
ClpP mod = qHTS Assay for Activators of ClpP. ATP-dependent Clp protease proteolytic subunit (Bacillus subtilis (strain 168)), P80244. purified B. subtilis ClpP, FRET peptide cleavage, 20 min. Potency, µM (series often up to 57.5 µM), for inactives: at the top dose activity change, negative = active. actives 1.9% (n = 340,000). AID 651965, 2013; active = well fitted falling curve with a large enough effect; inconclusive = small, poorly fitted or top-dose-only effect; inactive = no such curve, though single readings can be large or run the other way; also: potency is read from the fitted curve at half-maximal effect; the source files actives as falling curves though it sought activators and does not explain the sign; nearly all actives have a fitted effect of over 65% in size; many hits overshoot -100%
Target sequence (P80244 whole entry, looked up): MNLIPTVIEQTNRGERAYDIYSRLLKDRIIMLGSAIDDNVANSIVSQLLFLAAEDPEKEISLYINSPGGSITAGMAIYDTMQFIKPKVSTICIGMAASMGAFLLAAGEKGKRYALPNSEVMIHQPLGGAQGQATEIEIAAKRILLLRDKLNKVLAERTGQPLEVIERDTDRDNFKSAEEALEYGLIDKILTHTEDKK
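Purified B. subtilis ClpP, 10 microg/mL final in Tris/HCl pH8 with KCl, BSA, glycerol and Tween-20, cleaved an Abz/nitrotyrosine-quenched decapeptide. Fluorescence (ex 320, em 430) was read at 0 and 20 min at room temperature. Delta was normalized to 5.8 microM ADEP and DMSO/no-enzyme controls.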
* hit, by the source's call; ? = inconclusive; · = no result given; [ ] = another dose, or the depositor's remark.

SMILES	gsp ag	TRPML1 inh	gsp antag	Sfp inh	Menin-MLL FL inh	TRPV1 PAM	ClpP mod
CC(NC(=O)COC(=O)/C=C/c1ccc(Cl)cc1)c1ccccc1 (stereo not drawn)	1%	-8	-14%	-20%	3.2	-6	·
O=C(CSc1n[nH]c(-c2cc(Cl)ccc2Cl)n1)NCCN1C(=O)CSC1=O	-3%	-1	-1%	13%	9.8	-1	-6.4%
Cc1ccc(C(=O)OCc2cc(=O)n3c(C)csc3n2)s1	17%	-9	6%	·	·	0	3.6%
O=C(NCCc1ccccn1)C1CCN(S(=O)(=O)c2ccc3ccccc3c2)CC1	-22%	-4	0%	20%	1.3	6	·
Cc1ccc(NC(=O)CN(C)S(=O)(=O)c2cccc3nsnc23)cc1	-7%	-11	-9%	4%	-1.5	-6	-1.4%
CSc1ncccc1C(=O)OCC(=O)c1ccccc1	16%[15.4 µM]	2	-29%	9%	0.5	-4	-1.8%
Cc1ccc(NCCC(=O)c2ccccc2)cc1Cl	-5%[15.4 µM]	25	-11%	9%	3.0	-23	-0.7%
CCOC(=O)N1CCC(NS(=O)(=O)c2cc(Br)cnc2N)CC1	6%	25	11%	22%	-2.2	2	?
Cc1cccc(N=C2NC(=O)/C(=C/c3cccn3C)S2)c1C	10%[15.4 µM]	30	-12%	79µM*	?	-3	·
O=C(Cc1ccccc1)N1CCC(c2nc(-c3ccc(F)cc3)no2)CC1	24%	5	-24%	-13%	2.1	-15	0.9%
Cc1ccc(NC(=O)C(C)SCc2nc3sc4c(c3c(=O)[nH]2)CCCC4)nc1 (stereo not drawn)	?	-5	-9%	10%	·	4	-21%
O=C(Nn1cc(C(=O)Nc2ccc(F)cc2F)c2ccccc2c1=O)c1cnccn1	-1%[15.4 µM]	10	-1%	-5%	-4.0	-2	-20%
Cc1cc(C(=O)Cn2nc(C(=O)O)c3ccccc3c2=O)c(C)n1-c1cccc(C(F)(F)F)c1	13%[15.4 µM]	44	-12%	2%	3.2	-19	·
CCOc1c(Br)cc(CNc2ccc(N3CCOCC3)cc2)cc1OC	20%	22	-21%	?	0.9	5	1.0%
CC(C)(C#N)NC(=O)c1ccco1	19%	-17	-2%	19%	-0.3	9	-2.0%
CC1(C)CC(=O)C=C(Nc2ccc(Br)cc2F)C1	-34%[inhibitor]	12	-12%	13%	3.0	-11	·
COc1ccc(C)cc1S(=O)(=O)N1CCC(C)CC1	-44%[inhibitor]	2	-2%	20%	1.8	-19	-1.5%
CCOC(=O)N1CCN(C(=O)c2c(-c3ccccc3)noc2C)CC1	-36%[inhibitor]	-4	2%	18%	2.8	-2	-7.3%
Cc1cc(C)cc(N=C2NC(=O)/C(=C/c3cccs3)S2)c1	6%	19	-15%	-2%	12	1	-2.2%
O=[N+]([O-])c1cc(C(F)(F)F)cc([N+](=O)[O-])c1N1CCCNCC1	-1%	-3	-16%	-11%	0.4	9	·
CCOc1ccc(CN(C)CC(O)COC(c2ccc(OC)cc2)c2ccc(OC)cc2)cc1 (stereo not drawn)	13%	36	5%	?	-1.9	5	·
O=C(c1cccc(-c2ccc(O)cc2)c1)N1CCOCC1	-1%	21	6%	6%	2.2	-4	1.2%
CCN(C(=S)NCc1ccccc1)c1ccccc1	-63%[inhibitor]	-3	1%	-6%	0.9	-13	4.5%
O=C(Nc1nnc(-c2ccc(Cl)cc2)o1)c1cccc(N2C(=O)CCC2=O)c1	-23%	2	-1%	19%	0.5	-1	-2.7%
COc1ccc(Cl)cc1NC(=O)COC(=O)CCc1cc(OC)c(OC)c(OC)c1	-3%[15.4 µM]	31	·	2%	-1.9	7	·
Cc1ccc(S(=O)(=O)NCC(=O)N(c2ccccc2)C(C(=O)NCc2ccccc2)c2ccco2)cc1 (stereo not drawn)	-31%[inhibitor]	10	-12%	79µM*	-4.7	6	-1.3%
CSc1nc2sc(-c3ccccc3)cc2c(=O)n1N	-50%[inhibitor]	49	10%	8%	2.8	1	0.5%
CC(C)NC(=O)Cn1c(=O)cnc2ccccc21	-4%	-2	10%	22%	11	3	-28%
Cn1c(CCNC(=O)OC(C)(C)C)n[nH]c1=S	0%	-6	9%	1%	2.7	6	-3.1%
Cc1cc(NS(=O)(=O)c2ccc(NC(=O)/C=C/c3ccccc3Cl)cc2)no1	-29%	9	?	23%	0.6	-1	1.1%
COCCNC(=O)C(c1ccc(C)o1)N(C(=O)C(=O)NC1CCCCC1)c1ccc(F)cc1 (stereo not drawn)	11%	-7	-7%	?	-1.5	5	·
COCCn1c(SCC(=O)Nc2nnc(C)s2)nnc1-c1ccco1	28%[15.4 µM]	-10	4%	3%	-2.6	-10	·
O=C(NC1CCCCC1)c1noc2c1CCCCC2	1%	2	9%	20%	4.4	-1	-1.3%
CS(=O)(=O)c1ccc(NC(=O)c2cc3c(cc2Cl)N2CCCCCC2=NS3(=O)=O)cc1	4%	-1	-6%	·	·	·	-8.1%
NS(=O)(=O)c1ccc(NC(=O)CSc2nc3ccccc3c(=O)n2Cc2ccncc2)cc1	-76%[inhibitor]	-7	6%	·	·	·	-1.2%
CCOc1ccc(Cc2nc(-c3nonc3N)no2)cc1OCC	54%[15.4 µM]	-8	10%	-13%	5.1	14	-0.3%
CC12CCC(=O)N1C(C(=O)Nc1nnc(SCc3ccccc3)s1)CS2 (stereo not drawn)	-23%[15.4 µM]	6	-5%	·	·	6	-7.8%
CCOc1cc(-c2noc(-c3cccnc3)n2)ccc1OC	-12%	-7	0%	7%	5.7	-7	-1.1%
Cc1cccc(CCN(CC(=O)NC(C)(C)C)C(=O)c2csnn2)c1	-30%[15.4 µM]	36	-10%	9%	-1.2	1	·
CCC(=O)c1ccc(OCC(=O)OCC(=O)c2cc(C)n(C3CC3)c2C)cc1	-11%	20	-2%	·	·	-8	1.2%
COc1ccccc1C(=O)COC(=O)CNS(=O)(=O)c1ccc(C)cc1	-16%[15.4 µM]	-22	-16%	10%	-0.5	18	-0.1%
Cc1occc1-c1nnc(SCC(=O)Nc2ccc3c(c2)OCO3)n1CC1CCCO1 (stereo not drawn)	3%	-2	0%	2%	-3.3	4	1.5%
O=C(Nc1cc(C(F)(F)F)ccc1N1CCOCC1)c1ccc[n+]([O-])c1	?	-4	-3%	15%	6.6	27	-0.9%
COc1ccc2[nH]cc(CCNC(=O)Cc3ccc(Cl)cc3)c2c1	-7%	-6	-2%	-1%	-2.3	4	·
CC(=O)Nc1nc(SCCCc2ccccc2)n[nH]1	14%	-5	-4%	17%	1.6	-14	0.7%
CSc1ccc(NC(=O)N2CCC(C(=O)c3ccc(F)cc3)CC2)cc1	-5%[15.4 µM]	0	-11%	-7%	-0.8	-14	·
O=c1c2ccccc2nc(-c2ccccc2)n1O	9%	16	-9%	·	·	·	-1.8%
COc1ccc(CCC(=O)N2CCN(S(=O)(=O)c3cccc(Cl)c3)CC2)cc1	18%	-9	-8%	·	·	-4	-0.9%
Cc1ccc(C2NC(=O)NC3=C2CCc2ccccc23)cc1 (stereo not drawn)	-38%[inhibitor]	-1	-16%	?	?	-3	?
FC(F)(F)c1ccccc1NC(=S)N1CCc2ccccc2C1	-48%[inhibitor]	3	3%	19%	0.5	-7	-0.5%
Cc1ccccc1C(=O)N1[C@@H](C(C)C)COc2cc(Br)ccc2S1(=O)=O	·	66	-15%	·	·	·	-1.3%
CCCS(=O)(=O)N1CCCC(C(=O)NCCN2CCC(Cc3ccccc3)CC2)C1 (stereo not drawn)	-72%[inhibitor]	25	3%	8%	1.5	18	-1.7%
O=C(Oc1ccc(/C=N/NC(=O)c2ccccn2)cc1)c1ccc(Br)cc1	?	-10	4%	·	·	·	0.7%
O=C1CCN(Cc2ccccc2)C=C1c1ccc(Br)cc1	·	5	-33%	·	·	·	-0.5%
CN(CC(=O)Nc1ccc(F)cc1)C(=O)COC(=O)CSc1ccc(F)cc1	0%[15.4 µM]	-9	-23%	·	·	-7	0.4%
COC(=O)CSc1nnc(-c2ccc(S(=O)(=O)N3CCCC3)cc2)n1C	-12%	1	-3%	0%	4.3	-1	-28%
CC1(C)Cc2c(sc3nc(-c4ccccc4)n(N)c(=O)c23)CO1	-21%	20	1%	-4%	5.3	-4	-5.1%
CCCCOc1ccc(S(=O)(=O)Nc2ccc(NC(C)=O)cc2)cc1	-1%	2	-3%	11%	-0.2	11	0.1%
CCCn1nnnc1-c1cc(Cl)cc(Cl)c1	-4%	10	3%	28%	2.8	4	0.8%
CN(Cc1cccc(F)c1)C(=O)c1cccc(S(=O)(=O)N2CCN(Cc3ccccc3)CC2)c1	-96%[inhibitor]	4	-13%	15%	·	-8	0.3%

Next records follow:
SMILES	gsp ag	TRPML1 inh	gsp antag	Sfp inh	Menin-MLL FL inh	TRPV1 PAM	ClpP mod
O=C1Nc2ccccc2C(=O)C1(Cl)Cc1ccccc1 (stereo not drawn)	?	-4	-12%	18µM*	-4.0	·	-15%
NC(=O)c1cc(S(=O)(=O)NCc2ccc(F)cc2)cs1	?	2	6%	15%	-0.9	-3	-0.5%
COC(=O)c1ccc(C(=O)OC)c(NC(=O)CN(C)Cc2cccc(Cl)c2Cl)c1	5%	0	?	-3%	·	-18	-5.3%
O=C(O)c1ccc(Nc2nc3ccccc3nc2NS(=O)(=O)c2ccc(F)cc2)cc1	0%	-19	-12%	26%	-4.9	1	4.1%
Cc1ccc(S(=O)(=O)NN2C(=O)/C(=C/c3cccs3)SC2=S)cc1	-4%	-13	-15%	79µM*	0.5	?	0.7%
